Assay outcomes deposited in PubChem by several laboratories.
RecA intein inh: Mtb RecA intein splicing inhibition; AID 2221; hit rate 0.75% among 290,000; P9WHJ3; inhibition, %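 (about 9 µM by stock and volumes)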; cell-free RecA intein splicing, fluorescence; in the data active = inhibition above about 30%; inconclusive = no clear call, values can overlap the other calls;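 note: 0% = vehicle wells and 100% = reference inhibitor control wells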
Target sequence (P9WHJ3 whole entry, looked up): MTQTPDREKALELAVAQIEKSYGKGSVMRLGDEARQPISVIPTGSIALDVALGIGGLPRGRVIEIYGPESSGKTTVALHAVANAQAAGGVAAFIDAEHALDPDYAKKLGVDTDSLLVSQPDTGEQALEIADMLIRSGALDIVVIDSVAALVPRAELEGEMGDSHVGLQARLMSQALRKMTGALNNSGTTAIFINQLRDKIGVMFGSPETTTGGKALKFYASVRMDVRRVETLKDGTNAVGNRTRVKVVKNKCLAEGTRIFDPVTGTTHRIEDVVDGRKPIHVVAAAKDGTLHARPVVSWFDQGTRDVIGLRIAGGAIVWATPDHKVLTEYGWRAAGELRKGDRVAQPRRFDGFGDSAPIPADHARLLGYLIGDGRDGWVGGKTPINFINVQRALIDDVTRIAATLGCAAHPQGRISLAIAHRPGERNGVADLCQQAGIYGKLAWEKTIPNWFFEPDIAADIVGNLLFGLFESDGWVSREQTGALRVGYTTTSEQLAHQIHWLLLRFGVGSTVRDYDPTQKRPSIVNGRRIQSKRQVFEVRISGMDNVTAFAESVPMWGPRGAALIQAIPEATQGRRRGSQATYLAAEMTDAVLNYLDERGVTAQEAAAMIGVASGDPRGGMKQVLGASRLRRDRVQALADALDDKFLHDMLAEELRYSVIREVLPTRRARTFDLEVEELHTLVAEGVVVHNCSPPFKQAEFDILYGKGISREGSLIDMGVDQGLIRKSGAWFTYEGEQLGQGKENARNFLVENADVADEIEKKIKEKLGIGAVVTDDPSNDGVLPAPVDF
YopH PTP inh: blocks Yersinia enterocolitica YopH tyrosine phosphatase; fluorescence Ex485/Em525; inhibition, %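 (about 10 µM by stock and volumes)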; hit rate 0.16% among 140,000; AID 898;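 active = inhibition of 50% or more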;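 note: controls were vehicle for no effect and minimum signal wells for full effect; inactives centre near -20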
Mtb growth: M. tuberculosis H37Rv growth inhibitors, H37Rv strain (AID 1626). inhibition, % at 10 µM; hits with a dose series show IC50 in µM. hit rate 0.95% among 220,000. M. tuberculosis H37Rv growth inhibition; higher % means a stronger effect;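 active = confirmed in a dose series; inconclusive = inhibition above 80% but not taken into the dose series; inactive = below 80% or under 30% at every dose of the series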;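 note: bacteria incubated seven days before Alamar blue readout; 0% = bacteria only wells and 100% = bacteria with antibiotic wells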
Mtb bLac sens: beta-lactam sensitization of Mtb H37Rv. M. tuberculosis H37Rv growth with meropenem, percent inhibition; hits of this screen are not shown here. inhibition, % at 25 µM. hit rate 0.27% among 330,000. AID 434955;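 active = about 74% or more and at least 40 points above the plate without the antibiotic, then above 30% in a dose series; inconclusive = first-round hits that could not be retested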;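 note: growth measured after seven days incubation then overnight dye step; 0% = bacteria only wells and 100% = bacteria with antibiotic; twin plates without the antibiotic show which effects depend on it; some results filed as inactive read as strong as hits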
Arbovirus inh: arbovirus infection inhibition; arbovirus infection cell-based antiviral screen; inhibition, % at 10 µM; hit rate 0.37% among 200,000; AID 1251;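 active = inhibition from about 30%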;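 note: bluetongue infection of BSR cells; cell survival read as ATP light after 72 h; 0% = infected wells without compound and 100% = uninfected wells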
Arbovirus inh repeat: recorded beside Arbovirus inh, whose call it bears; inhibition, %; measured here: 10K subset replicate screen; many hits read low in the repeat;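 first of two repeat runs on a subset; 0% = infected and 100% = uninfected wells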
Numbers without * were called inactive; ? = inconclusive; · = not tested or not shown. An excerpt; the hit share may differ from the screen's.

SMILES	RecA intein inh	YopH PTP inh	Mtb growth	Mtb bLac sens	Arbovirus inh	others
CCN(CC)S(=O)(=O)c1ccc2oc(C(=O)O)c(C)c2c1	-0.9	7.6	-2.7%	-2.2	5.7
O=C(CCn1c(SCC(=O)c2ccccc2)nc2ccccc2c1=O)NCc1ccc(F)cc1	-1.4	-52.5	-10.8%	-3.7	-9.9
CCOC(=O)CSc1nc2ccc(N)cc2s1	-1.8	-13.9	61.1%	98.9	0.2
O=C(Cc1cccc(F)c1F)NC1CCCN(Cc2ccc(Cl)cc2)C1 (stereo unspecified)	1.5	·	·	7.2	·
CCOC(=O)c1cc(C(=O)c2cc(Cl)ccc2O)coc1=N	-19.7	·	3.8%	24.0	9.9
CCOC(=O)C1=C(c2cccc(Oc3ccccc3)c2)NC(=S)NC1C (stereo unspecified)	22.0	-14.5	8.9%	38.2	-22.6
COc1ccccc1C(CC(=O)c1ccccc1)CC(=O)c1ccccc1	2.8	·	-3.7%	2.0	-0.7
Cc1oc(-c2cccc(C(F)(F)F)c2)nc1CN1CCC[C@H]1CO	·	·	-2.2%	-2.2	-6.2
Cc1nc(CNC(=O)CC2C(=O)NCCN2Cc2ccoc2)nc2c1CCCC2 (stereo unspecified)	-4.4	·	-5.7%	-8.6	·
CCN1CCN(C(=O)CN(C)S(=O)(=O)c2ccc3ccccc3c2)CC1	-0.8	·	-2.0%	-5.1	5.1
CC1(C)Cc2ccccc2-c2nc(NCCO)n(-c3ccccc3)c(=O)c21	3.9	-21.1	3.1%	9.9	5.7	Arbovirus inh repeat=1.7
CCC(C)n1c(SCc2ccccc2)nc2ccsc2c1=O (stereo unspecified)	16.7	-8.1	12.9%	10.1	19.2
COC(=O)[C@@H](NC(=O)NC1CCCCC1C)C(C)C (stereo partly specified)	1.6	·	-6.5%	-7.0	·
CCCCn1c(Cc2ccccc2)n[nH]c1=S	0.2	6.9	-7.1%	-7.4	1.7
COc1ccccc1NC(=O)COc1ccc(C(F)(F)F)cc1[N+](=O)[O-]	-3.1	-38.0	1.3%	-4.1	·
O=C(CCS(=O)(=O)Cc1ccccc1)Nc1ncc([N+](=O)[O-])s1	14.1	·	·	0.2	·
Cc1cc(C)cc(CC2CC(=O)N(c3cc(C)on3)C2=O)c1 (stereo unspecified)	-3.9	3.4	-1.0%	2.5	5.4
N=c1c(C(=O)NCC2CCCO2)cc2c(=O)n3ccccc3nc2n1C1CCCC1 (stereo unspecified)	1.9	·	·	-0.1	·
CCC1CCCCN1Cc1nc2c(c(=O)n(C)c(=O)n2C)n1CC(C)C (stereo unspecified)	13.8	·	8.0%	-0.9	·
CCOc1ccc(C(=O)OCC(=O)Nc2nc(OC)cc(OC)n2)cc1OCC	0.0	-44.9	-4.5%	-14.8	-8.2
O=C(Nc1ccc2[nH]c(=O)[nH]c2c1)Nc1ccc(F)cc1F	-9.6	·	-8.3%	-5.5	0.6
COc1cc(OC)c(OC)cc1CN1CCN(S(=O)(=O)c2ccc(NC(C)=O)cc2)CC1	-0.2	·	-1.3%	-4.5	6.0
CCOC(=O)C1CCN(C(=O)CN(c2ccc3c(c2)OCO3)S(C)(=O)=O)CC1	·	5.0	4.9%	1.5	-1.7
COc1ccc(C(=O)NNC(=O)c2ccc(C(C)(C)C)cc2)cc1	1.0	·	0.7%	5.3	3.8
Cc1nc2ccccc2c(=O)n1NC(=O)c1cc(Br)ccc1Cl	-1.5	·	10.1%	-1.3	·

Additional compounds:
SMILES	RecA intein inh	YopH PTP inh	Mtb growth	Mtb bLac sens	Arbovirus inh	others
COCCNC(=O)CC(=O)N/N=C/c1cccc(C(=O)OC)c1	-0.2	·	-0.3%	0.1	-2.7
CCc1ccccc1NC(=O)CCc1c(C)nc(SC)nc1C	0.4	·	·	-1.4	·
CC(=O)c1ccc(NC(=O)Oc2ccccc2)cc1	-2.3	-13.5	-7.6%	-11.4	7.8
COc1ccc(C(CNC(=O)c2ccc(OCC3CCCO3)cc2)N2CCOCC2)cc1 (stereo unspecified)	·	6.1	6.8%	-2.9	3.5
CCOc1ccccc1NC(=O)N1CCC(C(=O)c2ccc(F)cc2)CC1	2.2	-18.0	-3.2%	-3.6	3.0
O=C(/C=C/c1ccccc1)Nc1cccnc1Cl	1.8	·	·	2.5	·
CN(CCc1ccccn1)C(=O)CCC1CCCN(C(=O)c2cscn2)C1 (stereo unspecified)	3.2	·	-4.6%	-0.4	-0.8
O=C(O)c1cccc(-n2cccc2C=C2C(=O)c3ccccc3C2=O)c1	6.5	·	4.5%	-2.4	1.1
O=C(NCc1ccc2c(c1)OCO2)c1ccc(-n2cnnn2)cc1	1.3	-44.5	0.0%	?	-7.1
Cc1ccc(-n2c(C)cc(C(=O)CN3C(=O)C(=O)N(C4CCCC4)C3=O)c2C)cc1	4.8	·	3.2%	28.9	12.0
O=C(Nc1cccc2cccnc12)c1ccc(Cl)cc1Cl	0.3	·	·	-0.1	·
COc1ccc(OC)c(S(=O)(=O)NCc2nc3nc(C)cc(C)n3n2)c1	1.2	·	·	-0.1	·
Cc1ccc(Cl)cc1NS(=O)(=O)c1ccc(-n2cccn2)cc1	2.9	·	·	-13.7	·
Cc1ccc(NS(=O)(=O)c2cc(Br)cnc2N)cc1C	1.7	·	·	-3.7	·
Cc1ccc(C)c(Cn2c(=O)n(CCCC(=O)NCc3ccco3)c(=O)c3sccc32)c1	·	-34.8	-2.4%	-10.6	-8.4
Cn1nc(C(=O)OCC(=O)NC2CCS(=O)(=O)C2)c2ccccc2c1=O (stereo unspecified)	-0.1	·	4.9%	1.4	-0.4
Cc1cc(C)cc(N(CC(=O)NC2CCCC2)S(=O)(=O)c2c(C)[nH]c(=O)[nH]c2=O)c1	-3.6	·	0.5%	-0.6	·
COc1cccc(CN2C(=O)CCC2(C)C(=O)NCCc2ccc(OC)c(OC)c2)c1 (stereo unspecified)	0.6	·	·	-7.5	·
O=C(Nc1ccccc1Cl)N1CCN(Cc2ccc3c(c2)OCO3)CC1	0.9	·	4.5%	-11.3	-3.8
O=C(/C=C/c1ccccc1Cl)Nc1ccc(S(=O)(=O)Nc2ncccn2)cc1	·	·	-7.5%	1.6	7.5
c1ccc(-c2csc3ncnc(NCc4ccccn4)c23)cc1	4.1	·	-4.7%	57.9	·
CN(CC(=O)Nc1ccc(F)c(F)c1F)C(=O)c1ccc(=O)[nH]c1	0.8	·	·	1.1	·
COc1cccc(NC(=S)N(Cc2ccc(Cl)cc2)Cc2ccc(C(=O)O)cc2)c1	0.8	·	0.1%	0.6	14.7
COC(=O)c1sc2ccc(C)cc2c1C(=O)OC	3.6	-34.6	3.2%	2.0	-5.1
O=C1COc2ccc(-c3csc(=Nc4ccc(OC(F)F)cc4)n3CC3CCCO3)cc2N1 (stereo unspecified)	-0.6	-8.4	13.7%	9.4	-7.6

Filtered by structure: the entries above containing a Cl atom (9)
SMILES	RecA intein inh	YopH PTP inh	Mtb growth	Mtb bLac sens	Arbovirus inh	others
O=C(Cc1cccc(F)c1F)NC1CCCN(Cc2ccc(Cl)cc2)C1 (stereo unspecified)	1.5	·	·	7.2	·
CCOC(=O)c1cc(C(=O)c2cc(Cl)ccc2O)coc1=N	-19.7	·	3.8%	24.0	9.9
Cc1nc2ccccc2c(=O)n1NC(=O)c1cc(Br)ccc1Cl	-1.5	·	10.1%	-1.3	·
O=C(/C=C/c1ccccc1)Nc1cccnc1Cl	1.8	·	·	2.5	·
O=C(Nc1cccc2cccnc12)c1ccc(Cl)cc1Cl	0.3	·	·	-0.1	·
Cc1ccc(Cl)cc1NS(=O)(=O)c1ccc(-n2cccn2)cc1	2.9	·	·	-13.7	·
O=C(Nc1ccccc1Cl)N1CCN(Cc2ccc3c(c2)OCO3)CC1	0.9	·	4.5%	-11.3	-3.8
O=C(/C=C/c1ccccc1Cl)Nc1ccc(S(=O)(=O)Nc2ncccn2)cc1	·	·	-7.5%	1.6	7.5
COc1cccc(NC(=S)N(Cc2ccc(Cl)cc2)Cc2ccc(C(=O)O)cc2)c1	0.8	·	0.1%	0.6	14.7

Four entries from above, sorted by heavy-atom count, lowest first:
SMILES	RecA intein inh	YopH PTP inh	Mtb growth	Mtb bLac sens	Arbovirus inh	others
Cc1ccc(NS(=O)(=O)c2cc(Br)cnc2N)cc1C	1.7	·	·	-3.7	·
Cc1ccc(Cl)cc1NS(=O)(=O)c1ccc(-n2cccn2)cc1	2.9	·	·	-13.7	·
CN(CCc1ccccn1)C(=O)CCC1CCCN(C(=O)c2cscn2)C1 (stereo unspecified)	3.2	·	-4.6%	-0.4	-0.8
COc1cccc(CN2C(=O)CCC2(C)C(=O)NCCc2ccc(OC)c(OC)c2)c1 (stereo unspecified)	0.6	·	·	-7.5	·

Additional compounds:
SMILES	RecA intein inh	YopH PTP inh	Mtb growth	Mtb bLac sens	Arbovirus inh	others
O=C(c1cccc([N+](=O)[O-])c1)N1CCc2ccccc21	-0.8	·	·	5.1	·
Cc1[nH]c2ccccc2c1/C=N/NC(=O)CCC(=O)Nc1ccccc1	4.2	·	0.3%	3.6	-0.2
Cc1ccn2c(/C=N/OCc3ccc(F)cc3)c(-c3ccc(Cl)cc3)nc2c1	3.1	-12.1	3.7%	-10.7	-0.8
O=[N+]([O-])c1ccc(C(O)CN2CCN(C/C=C/c3ccccc3)CC2)cc1 (stereo unspecified)	-0.8	·	·	-8.4	·
CCN(CC)CCCNC(=O)c1ccc(N2CCCCC2)c(NS(=O)(=O)c2ccc(C)cc2)c1	-1.2	·	0.1%	3.3	-28.9
Cc1ccc(NC(=O)c2c(C)nc3sc(C(=O)NC4CCCC4)c(N)c3c2-c2ccco2)c(C)c1	-3.8	-25.1	9.1%	2.5	-2.9
COc1ccc(C2CC(=O)C3=C(C2)Nc2ncnn2C3c2ccccc2)cc1 (stereo unspecified)	5.1	-1.2	-8.6%	-6.4	0.3
COc1ccc(N2CCN(CC(O)COc3ccc(C)c(C)c3)CC2)cc1 (stereo unspecified)	-1.9	·	·	3.3	·
CCn1c(CNC(=O)c2ccc(OC)c(OC)c2)nnc1SCC(=O)Nc1ccccc1	3.1	-33.6	-7.8%	1.0	-1.9
Cc1cc(N2CCOCC2)n2cc(-c3ccccc3)nc2n1	-3.1	·	0.8%	-0.6	-7.5
O=C(O)c1sc2cc(C(F)(F)F)cnc2c1-c1ccccc1	-1.8	-9.8	-2.4%	3.9	7.4
COc1ccc(C)c2sc(=NC(=O)C(C)C)n(C)c12	0.6	-15.3	1.6%	-11.7	-0.5	Arbovirus inh repeat=5.9
CC(=O)Nc1ccc(NC(=O)C(C)n2nc(C)c([N+](=O)[O-])c2C)cc1 (stereo unspecified)	3.5	·	-2.9%	-5.3	-1.4
COc1ccc(-c2nc(CS(=O)CC(=O)NCc3cccnc3)c(C)o2)cc1OC (stereo unspecified)	-1.1	·	-1.8%	3.4	13.6	Arbovirus inh repeat=-4.8
O=C(Cc1ccccc1)Oc1cccc(N2C(=O)CCC2=O)c1	8.5	-16.7	1.5%	-2.0	12.6	Arbovirus inh repeat=-0.7
Cc1ccc(C(=O)Nc2cccc(C(=O)NC3CCCC3)c2)cc1	3.0	·	·	0.2	·
CCN(c1ccc(OCC(=O)OCC(=O)Nc2ccc(F)c(F)c2F)cc1)S(=O)(=O)c1ccccc1	·	-10.3	8.9%	-4.1	6.3
Cn1c(=O)cc(OCC(=O)NCCCN2CCN(Cc3ccccc3)CC2)c2ccccc21	0.3	-27.3	2.5%	2.9	-12.7
Cc1ccc(C)c(NC(=O)Cn2cnc3c(oc4ccccc43)c2=O)c1	0.6	·	1.2%	7.6	3.2
COc1ccc(N=C2NC(=O)CS2)c([N+](=O)[O-])c1	0.7	·	0.5%	1.0	6.7
COc1ccc2c(c1)N(C)/C(=C1/SC(=S)N(NC(C)=O)C1=O)S2	0.1	·	·	7.1	·
Cc1cccc(CS(=O)(=O)Cc2ccc(C(=O)N3CCC4(CC3)OCCO4)o2)c1	-1.3	-9.2	-1.2%	-1.9	4.5
